Source: PubChem BioAssay
NPYLR7 ag: mosquito NPYLR7 agonism; activation, % at 10 µM; HEK293T NPYLR7/Galpha15, GCaMP6s calcium fluorescence; hit rate 0.15% among 270,000; in the data active = activation above about 40%;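 note: 0% = vehicle and 100% = reference agonist at the receptor; some compounds past the cut are filed as inactive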
NPYLR7 ag max-min: second read-out of NPYLR7 ag, no call of its own (marks repeat the call); activation, %; measured here: Max-Min RFU normalised activation; some inactives read as strong as hits;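 span of the calcium signal over five minutes; 0% = vehicle and 100% = native peptide agonist; compound fluorescence can raise it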
Active calls of the source: *; & = joins results of further samples. The list is partial (hit frequency here may not be typical).

The line under a structure holds: NPYLR7 ag	NPYLR7 ag max-min
Cc1nc2ccccc2nc1N1CCN(C(=O)c2c(C)noc2C)CC1
 : 25	35
CCC(C)NC(=O)c1cc(-c2cccc(OC)c2)nn1-c1ccc(C)cc1 (centres undefined)
 : 0	12
CCn1c(SCc2ccc(C(=O)Nc3ccc(F)cc3)cc2)nnc1-c1ccc([N+](=O)[O-])cc1
 : 3	3
COC(=O)CCc1c(C)nn(-c2ccc(C(=O)NCc3ccco3)cc2)c1C
 : -12	-16
CCCCCNC(=O)c1sc2[nH]c(=S)[nH]c(=O)c2c1C
 : -1	-4
Cc1cc(C)nc(NC(N)=O)n1
 : 3	1
COc1ccc(-n2nc(C(=O)O)c(=O)n(Cc3ccccc3F)c2=O)cc1
 : 19	18
O=C(Cc1cccs1)NNC(=O)c1cccn(Cc2ccc(F)cc2)c1=O
 : -9	-12
CC1(C(=O)NCc2ccc3c(c2)OCO3)CCN1C(=O)CCc1ccc(Cl)cc1Cl (centres undefined)
 : -3	0
COc1ccc(-c2c[n+](=O)c3c(n2[O-])CCCC3)c(OC)c1
 : 9	16
CCn1cnnc1CN(C)Cc1cccc2c1oc1ccccc12
 : 15	9
O=C(c1cc(F)cc(F)c1)N(Cc1nc2cc(Cl)ccc2o1)C1CCCC1
 : 0	-4
Cn1c(=O)c2c(SCC(=O)N3CCc4ccccc43)nc(-c3ccccc3F)nc2n(C)c1=O
 : -2	-11
COc1ccc2c(c1)CCN2Cc1nc2c(cnn2C)c(=O)[nH]1
 : -1	1
CCCc1nnc(-c2cc3ccccc3n2CC(=O)Nc2ccc(C)cc2)o1
 : -3	-4
Cc1nn(CC(=O)NC23CC4CC(CC(C4)C2)C3)c(C)c1[N+](=O)[O-]
 : 0	-5
Cn1c(=O)cc2c3c(cccc31)C(=O)c1ccccc1-2
 : -3	-13
CCOC(=O)C1=C(C)N=c2s/c(=C\c3ccc(OC(C)=O)cc3OC(C)=O)c(=O)n2C1c1cccs1 (centres undefined)
 : -3	3
O=C(NC1CC1)c1cc2n(n1)CCCN(C(=O)Cc1noc3ccccc13)C2
 : -5	-7
CC(C)(C)n1ncc(NCc2cc3ccccc3[nH]2)c(Cl)c1=O
 : -18&-2	-18&43
CN(Cc1nc2ccc(Cl)cc2[nH]1)C(=O)c1cn(CC2CCCCC2)nn1
 : 2	-1
COCCOc1ccccc1C(=O)Nc1ccccc1F
 : 0	3
O=C(c1ccc(-c2ccn[nH]2)cc1)N1CC[C@H](CO)[C@H](O)C1
 : 2	2
CCC(C)NC(=O)c1ccc(-c2cccc3ccnn23)o1 (centres undefined)
 : -1	-4
CCc1cc(C(C)NCc2cn[nH]c2-c2ccc(F)cc2)on1 (centres undefined)
 : -3	-3
O=C(OCc1nc(C(=O)NC2Cc3ccccc3C2)cs1)c1ccccc1
 : -4	-14
Cn1c2ccccc2c2c(C(F)(F)F)cc(-c3ccccc3)nc21
 : 1	-1
CSc1ccc(-c2nc(CN(C)Cc3cnc(N)nc3)c(C)o2)cc1
 : 1	0
Cc1cccc(SC2CCN(c3nncc(-c4ccccc4)n3)CC2)c1
 : 3&-2	-2&-3
CN1N=C(c2c[nH]c3ccccc23)CSC1=NCc1ccccc1
 : 2&4	667&2
Cc1ccc(CNC(=O)C(C)Sc2n[nH]c(N)n2)cc1 (centres undefined)
 : 8	16
CC1(C)[C@@H]2CC[C@@]1(C)[C@H](NC(=O)c1cccnc1N1CCNCC1)C2
 : 4	2
CC(NCC(=O)Nc1ccc(Cl)cc1F)c1nc(-c2ccccn2)no1 (centres undefined)
 : 28	19
O=C(c1csc(CSc2nnc(-c3ccco3)n2-c2ccc(F)cc2)n1)N1CCc2ccccc2C1
 : 4	10
CCOC(=O)c1c(NC(=O)Nc2ccc(Cl)c(Cl)c2)sc(C)c1C
 : -8	-6
Nc1cccc2cccnc12
 : -2	1
CC(CCOc1ccccc1)C(=O)N1CCC(N2CCCC2)C1 (centres undefined)
 : 12	9
CCOc1ccccc1NC(=O)CSc1nc2c(-c3ccccc3)c[nH]c2c(=O)n1CC
 : 1	-4
Cc1nn2c(NCc3cccnc3)cc(C(C)C)nc2c1-c1ccccc1
 : 0	2
c1ccc([C@@H]2C[C@@H]3C[C@H](NC4CCCCCC4)C[C@@H]3CO2)cc1
 : 0	-2
Cc1[nH]c(=O)sc1C(=O)NCc1cccc(Cl)c1
 : 4	0
CCNc1cc(NCCNC(=O)c2ccccc2C(F)(F)F)nc(C)n1
 : 4	4
FC(F)(F)c1ccnc(Nc2ccc(N3CCOCC3)cc2)n1
 : -2	-2
COc1ccc(C(=O)Nc2ccc(-c3nc4cc(C)cc(C)c4o3)cc2)cc1[N+](=O)[O-]
 : -3	-6
CC(=O)N1CCN(C(=O)c2nn(-c3cc(C)cc(C)c3)c(=O)n(Cc3cccc(Cl)c3)c2=O)CC1
 : -1	7
CC(Cc1ccccc1)N=C(N)C(C#N)/C=C1/Nc2ccccc2C1=O (centres undefined)
 : 19	21
COc1cccc(CCn2ccnc2-c2cccc(O)c2)c1
 : -4	-8
COc1cc(C2N=C(N)Nc3nc4ccccc4n32)cc(Br)c1O (centres undefined)
 : 1	48
COc1ccc(OC)c(-c2cnc(-c3cccc(CNC(=O)c4c(Cl)cc(Cl)cc4Cl)c3)[nH]2)c1
 : -9	-10
c1n[nH]c(SCCNC2CCN(c3ccc4c(c3)OCO4)CC2)n1
 : 22	10
Cc1nc2ccccn2c(=O)c1NC(=O)Nc1ccc(OC(F)(F)F)cc1
 : 2	0
COCCNCc1ccc(OC)c(OS(=O)(=O)c2ccc(F)cc2)c1
 : 3	2
CCC1CN(CCNC(=O)CCc2c(C)noc2C)Cc2cc(OC)ccc2O1 (centres undefined)
 : 17	6
COc1ccc(-c2csc(C(N)=O)c2)cn1
 : 1	0
COc1ccc(-c2nc3cc(C)ccc3o2)cc1NC(=O)c1ccc(Cl)cc1Cl
 : -12	-15
COc1ccc(C)c2sc(N(CCCN3CCOCC3)C(=O)Cc3ccccc3)nc12
 : 1	-4
CCN(C(=O)CCN1C(=O)c2ccccc2C1=O)c1ccc(F)cc1
 : 4	-1
Cc1ccc(C)c(CNC(=O)Nc2nncs2)c1
 : 2	-2
O=c1c2c(-c3ccccc3)n3ncnc3nc2ccn1C1CCCC1
 : -12	-15
O=C(c1ccc2c(c1)OCO2)C1CCCN(Cc2ccc3ccccc3n2)C1 (centres undefined)
 : 1	3

(continued)
The line under a structure holds: NPYLR7 ag	NPYLR7 ag max-min
FC(F)(F)c1cccc(-n2c(Cn3cncn3)n[nH]c2=S)c1
 : -20	-23
COc1cccc2c(SC(C)C)nccc12
 : 3	1
CC(C)(CNC(=O)C1=CCCCO1)c1ccc(Br)cc1
 : 1	1
COc1ccc(/C=N\Nc2nc(-c3cc4cc([N+](=O)[O-])ccc4oc3=O)cs2)cc1
 : 0	-7
COC(=O)C1=C(C(=O)OC)SC(=C2C(=S)C(C)(C)Nc3ccc(OC)cc32)S1
 : 12&7	3&10
Cc1ccc(CCSc2nncn2CC(F)(F)F)cc1
 : -3	-4
O=c1nc(SCc2ccccn2)c2c([nH]1)CCC2
 : 1	-5
CCN(CCN1CCCCC1)C(=O)c1cnn2ccccc12
 : 5	5
O=C(NC1CCCN(c2ncccn2)C1)c1c(F)cccc1Cl (centres undefined)
 : 4	2
COc1ccc(OC)c(-n2c(CNC(=O)COc3ccccc3)nnc2SCC(=O)N2CCc3ccccc32)c1
 : 6	6
COC(=O)C1=C(C)NC(=O)NC1c1ccc(OCCO)c(OC)c1 (centres undefined)
 : -1	-5
Cn1cc(NC(=O)NCCC2=CCCCC2)c2ccccc21
 : -2	-9
COCC1CCN(C(=O)C2CCC(=O)N(Cc3cccc(C(F)(F)F)c3)C2)CC1 (centres undefined)
 : 0	-3
COc1ccc(C2CC(c3nc4ccccc4[nH]3)=NN2C(=O)CCCl)cc1 (centres undefined)
 : 1	-6
O=C(Nc1ccc(-c2nc3ccccc3o2)c(O)c1)c1cccc2ccccc12
 : -15	-24
CCOCCCn1c(SCc2ccccc2C#N)nc2cc(S(=O)(=O)N3CCOCC3)ccc21
 : 0	-2
N=C1/C(=C\c2ccco2)C(=O)N=C2SC(Cc3cccs3)=NN12
 : -2	-3
C=CCn1cc(C(=O)NCCc2ccc(OC)c(OC)c2)c2nn(-c3ccccc3)c(=O)c-2c1
 : 3	1
COc1cc(OC)c(C2Nc3ccccc3-c3nc4ccccc4n32)cc1OC (centres undefined)
 : 6	5
O=c1[nH]c(CN(Cc2ccc(C(F)(F)F)cc2)C2CC2)nc2ccccc12
 : 2	3
O=C(N1CCCCC1)N1CCN(C(=O)N(c2ccccc2)c2ccccc2)CC1
 : 9	12
CC(C)C1CN(c2ncnc3c2CCC3)CCC(=O)N1CC1CC1 (centres undefined)
 : 5	-3
COc1c(F)cccc1C(=O)NC(C)c1cn2ccsc2n1 (centres undefined)
 : -1	-2
CCCCC1C(=O)N(c2ccccc2)N(c2ccc(O)cc2)C1=O (centres undefined)
 : -3&-16	-12&-19
Cc1ccc(-c2ccc3cc[nH]c(=O)c3c2)c2cccnc12
 : -8	-8
CN(c1ncccc1C(=O)N1CCC(N2CCCC2=O)CC1)C1CCCCC1
 : 3	1
COc1ccc(CN2CCC(CNC(=O)c3ccoc3C)C2)cc1O (centres undefined)
 : 12	4
C=CCn1c(CN2CCN(C)C3(CCN(C)CC3)C2)nc2ccccc21
 : 10	7
COc1cccc(-c2cc(C(=O)Nc3ccc(F)cc3)n(-c3cccc([N+](=O)[O-])c3)n2)c1
 : -17	-9
CCCCN(Cc1cccn1Cc1cccc(C)c1)C(=O)CN(CCOC)C(=O)c1ccc(Br)cc1
 : 3	16

(list continues)
Structure | NPYLR7 ag | NPYLR7 ag max-min
CCOC(=O)N1CCN(C(=O)COC(=O)c2ccc([N+](=O)[O-])o2)CC1 | 0 | 56
CCCc1nc2sc3c(NCCN(C)C)ncnc3c2c2c1CCCC2 | 3 | -2
CCS(=O)(=O)Oc1ccccc1CN(C(=O)c1cccc(F)c1)C(C)C | 4 | 21
Cc1ccccc1C(=O)N1CCSC12C(=O)N(Cc1cccc(C#N)c1)c1ccccc12 (centres undefined) | 15 | 22
CCOC(=O)c1c(S(=O)(=O)NCc2ccc(F)cc2Cl)n[nH]c1CC | -4 | -5
Cc1cccc(C)c1OCC(=O)Nc1ccccc1S(=O)(=O)N1CCCC1 | 4 | 0
COC(=O)CCC(=O)N1CCCC(C(=O)c2ccccc2SC)C1 (centres undefined) | 23 | 12
CCCCCCCCCn1c(=O)c2c(nc3oc(C)c(C)n32)n(C)c1=O | -1 | 3
Cc1cccc(-n2cc(CN3CCN(Cc4cccc(F)c4)C(=O)C3)cn2)c1 | 5 | 5
Nc1nc(-c2ccccc2)c(N=Nc2ccc3c(c2)OCO3)s1 | 6 | 5
CCOC(=O)c1ccc2c(c1)nc(SCc1ccc(OC)c(F)c1)n2Cc1ccccc1 | 3 | -1
O=C(Cc1ccc(Cl)s1)Nc1nnc(-c2ccco2)o1 | 4 | 3

Copied from the list:
COC(=O)CCC(=O)N1CCCC(C(=O)c2ccccc2SC)C1 (centres undefined) – NPYLR7 ag: 23
CCCc1nc2sc3c(NCCN(C)C)ncnc3c2c2c1CCCC2 – NPYLR7 ag: 3
Cc1cccc(C)c1OCC(=O)Nc1ccccc1S(=O)(=O)N1CCCC1 – NPYLR7 ag: 4

Next part:
Structure | NPYLR7 ag | NPYLR7 ag max-min
Cc1cc(NC(=O)CSCC(=O)O)no1 | 0 | -1
CC1COCCN1C(=O)NCc1csc(CCc2ccccc2)n1 (centres undefined) | -22 | -26
NS(=O)(=O)c1ccc(Cl)cc1F | 5 | 6
COc1cccc(CN(CCC(C)C)CC(O)COc2ccccc2C)c1OC (centres undefined) | -1 | 11
O=C1CCc2cc(F)c(NC(=O)C3CCC3)cc2N1 | -2 | -1
Cc1cccc(Oc2ncccc2N2CC3CS(=O)(=O)CC3C2=O)c1C (centres undefined) | 5 | 3
COc1ccc(-c2csc(NC(=O)c3ccc(S(=O)(=O)N4CCCC4)cc3)n2)cc1F | 10 | 9
CC(=O)Nc1cccc(Nc2cc3c(cn2)cc(-c2cccnc2)n3Cc2ccccc2)c1 | 14 | 19
O=C(CSc1nc2sc3c(c2c(=O)[nH]1)CCCC3)N1CCOCC1 | 0 | 3
CS(=O)(=O)c1nccn1CCCC1CCCC1 | 2 | 3
COCCN1CCN(C(=O)c2cn(C3CCCCCC3)nn2)CC1 | 3 | -1
CCc1ccc(NS(=O)(=O)c2n[nH]c(C)c2C(=O)n2nc(C)cc2C)cc1 | -6 | -6
Cn1c(SCC(=O)N2CCN(c3ccccn3)CC2)nnc1-c1ccccc1 | 17 | 13
N#Cc1c(NC(=O)C2CCCO2)sc2c1CCCCC2 (centres undefined) | -7 | -12
Cc1ccc(Cn2c(C)c(C(=O)NCc3ccc(F)cc3)sc2=O)cc1 | 13 | 4
O=C(Oc1ccc2c(c1)OCO2)c1oc2ccccc2c1COc1ccccc1 | 1 | 5
CSc1ncc(CNC(C)c2cnn(-c3ccccc3)c2C)cn1 (centres undefined) | 4 | 0
Cc1nc(SCC(=O)NNC(=O)c2cccs2)c2c(C)c(C)sc2n1 | -2 | -3
CCOC(=O)c1nn(CCc2ccccc2)c2c1CN(C(=O)Cn1nc(C)cc1C)CC2 | 14 | -2
CCOc1ccc(C(=O)Nc2cccc(-c3nc4ncccc4o3)c2)cc1[N+](=O)[O-] | -2 | -8
CCOCCn1c(=O)c2c(nc3n(-c4ccc(C)c(C)c4)c(C)c(C)n23)n(C)c1=O | 0 | 7

Given with each value named: part of the list above.
N#Cc1c(NC(=O)C2CCCO2)sc2c1CCCCC2 (centres undefined)
  NPYLR7 ag: -7
  NPYLR7 ag max-min: -12

Cc1ccc(Cn2c(C)c(C(=O)NCc3ccc(F)cc3)sc2=O)cc1
  NPYLR7 ag: 13
  NPYLR7 ag max-min: 4

O=C(Oc1ccc2c(c1)OCO2)c1oc2ccccc2c1COc1ccccc1
  NPYLR7 ag: 1
  NPYLR7 ag max-min: 5
